# CBX7 AlphaScr: inhibitors of human CBX7 binding to H3K27me3 peptide; O95931; AlphaScreen His6-CBX7 / biotin-H3K27me3 peptide binding; hits give low values; normalised signal (fraction of DMSO) (no concentration beside the values); 1.1% of 66,000 active; AID 1224903; in the data active means normalised signal below about 0.5;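 further: 100 nL library stock added to about 20 µL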
# Target sequence (O95931 whole entry, looked up): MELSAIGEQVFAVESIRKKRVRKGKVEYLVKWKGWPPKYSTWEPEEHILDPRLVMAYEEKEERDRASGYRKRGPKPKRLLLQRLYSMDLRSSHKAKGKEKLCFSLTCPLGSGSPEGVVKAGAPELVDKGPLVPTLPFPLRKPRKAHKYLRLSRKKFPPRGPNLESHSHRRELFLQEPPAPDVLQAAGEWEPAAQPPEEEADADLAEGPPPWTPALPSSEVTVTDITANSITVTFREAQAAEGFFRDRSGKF
# CBX7 AlphaScr z-score: further read-out of CBX7 AlphaScr, marked with its call; z-score; measured here: z-score of CBX7 signal; some inactives read as strong as hits; reference of the scale not given here;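 same signal on another scale; lower means less binding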
# Numbers without * were called inactive; & = joins results of further samples. These rows are one share of the data, so the mix of outcomes need not match the whole.
SMILES,CBX7 AlphaScr,CBX7 AlphaScr z-score
O=C(O)C1CCC(CNc2c(NC3CCCCC3)c(=O)c2=O)CC1 (stereo not drawn),0.99,-0.288
COc1ccc(N2C(=O)CCC(C(=O)Nc3cc(OC)ccc3OC)C2c2ccc(F)cc2)cc1 (stereo not drawn),1.06,0.866
O=S(=O)(Nc1cccc(-c2cn3ccccc3n2)c1)c1ccc(Br)cc1,1.02&1.01,0.691&0.303
FC(F)(F)c1cccc(Nc2c3c(nc4ccccc24)CCC3)c1,0.952,-0.825
CCCc1cc(C(=O)Nc2c(C)nn(Cc3ccccc3Cl)c2C)no1,1.04,1.3
O=S1(=O)N=C(Nc2ccc(Cl)c(Cl)c2)c2ccccc21,0.99,-0.248
Cc1nn(C(=O)C(C)n2nc(C)c3c2CC2C3C2(C)C)c2c1C1C(C2)C1(C)C (stereo not drawn),1.06,0.0585
O=C(CSc1nc2ccccc2[nH]1)NCCc1ccccc1,0.804,-1.92
CC1CC(C)CN(C(=O)Cn2ncc3c2-c2ccccc2OC3)C1 (stereo not drawn),1.01,0.145
CCC(C(=O)N1CCOCC1)n1c(C(=O)OC)cc2sc(Cl)cc21 (stereo not drawn),1.07,2
COc1ccc(-c2nn(C)c3sc(C(=O)Nc4ccc5c(c4)OCO5)cc23)cc1OC,0.769,-6.48
CCCNC(=O)Cn1cnc2sc(C(=O)Nc3ccc(C(C)C)cc3)c(C)c2c1=O,1.05,0.74
Cc1ccc2c(c1)NC(=O)C(CC(=O)NCCN(C)C)O2 (stereo not drawn),0.991,-0.211
Cc1cc(C)cc(C(=O)Nc2c3c(nn2-c2ccc(F)cc2)CS(=O)(=O)C3)c1,1.06,0.661
Fc1ccc(-c2nc3ncccn3c2Nc2ccc(Cl)cc2)cc1,1.15,0.644

# Record cards, from the list above:
# `COc1ccc(-c2nn(C)c3sc(C(=O)Nc4ccc5c(c4)OCO5)cc23)cc1OC` reads CBX7 AlphaScr: 0.769; CBX7 AlphaScr z-score: -6.48
# `Cc1cc(C)cc(C(=O)Nc2c3c(nn2-c2ccc(F)cc2)CS(=O)(=O)C3)c1` reads CBX7 AlphaScr: 1.06; CBX7 AlphaScr z-score: 0.661

# (more compounds)
SMILES,CBX7 AlphaScr,CBX7 AlphaScr z-score
CCOC(=O)c1cnc2ccc(OCC)cc2c1Nc1cccc(C)c1,1.02,0.273
COc1ccc(Nc2ncc(C(=O)Nc3ccc(OC)c(Cl)c3)c3ccccc23)cc1,1.04,0.623
Cn1cc(CCC(=O)NC2CCCc3ccccc32)c2ccccc21 (stereo not drawn),0.937,-0.674
CC(NC(=O)c1ccncc1)C(c1cccs1)N1CCN(C)CC1 (stereo not drawn),0.89,-1.16
CCC(C)NC(=O)C1CCN(C(=O)c2sccc2-n2cccc2)CC1 (stereo not drawn),0.987,-0.311
COc1ccccc1Nc1cc(C(=O)NCCCN2CCC(C)CC2)c2ccccc2n1,1.14,0.142
CCOC(=O)N1CCC(Nc2c(NC3CCCCCCC3)c(=O)c2=O)CC1,1.03,0.542
COC(=O)CNC(=O)c1c(-c2ccccc2)noc1C,0.913,-0.999
O=C(NC1CCCCC1)C1c2ccccc2C(=O)N1Cc1ccccc1 (stereo not drawn),1.03,0.588
Cc1[nH]c2ccccc2c1C1(O)C(=O)N(C)c2ccc(Cl)cc21 (stereo not drawn),1.06,0.876
COc1ccc2nc(NC(=O)c3ccc(S(=O)(=O)N4CC(C)CC(C)C4)cc3)sc2c1 (stereo not drawn),1.01,0.281
CCOC(=O)c1nc(Nc2ccc(Cl)cc2C)c2ccccc2n1,1.02,0.746
CCOc1ccc2ccccc2c1C(=O)NCCc1cc2c(OC)ccc(OC)c2[nH]c1=O,0.981,-0.741
COc1ccc(N2C(=O)CC(NCCc3ccc(S(N)(=O)=O)cc3)C2=O)cc1 (stereo not drawn),1.02,0.141
CCOc1ccc(CNC(=O)COc2cc(=O)n(CC)c3ccccc23)cc1,0.87,-2.13

# An excerpt from further up, as a working copy:
SMILES,CBX7 AlphaScr,CBX7 AlphaScr z-score
CCOc1ccc2ccccc2c1C(=O)NCCc1cc2c(OC)ccc(OC)c2[nH]c1=O,0.981,-0.741
COc1ccc(N2C(=O)CC(NCCc3ccc(S(N)(=O)=O)cc3)C2=O)cc1 (stereo not drawn),1.02,0.141
CCOc1ccc(CNC(=O)COc2cc(=O)n(CC)c3ccccc23)cc1,0.87,-2.13

# Rewritten bar-delimited: three of the compounds above
SMILES | CBX7 AlphaScr | CBX7 AlphaScr z-score
CCCNC(=O)Cn1cnc2sc(C(=O)Nc3ccc(C(C)C)cc3)c(C)c2c1=O | 1.05 | 0.74
Cc1ccc2c(c1)NC(=O)C(CC(=O)NCCN(C)C)O2 (stereo not drawn) | 0.991 | -0.211
Cc1cc(C)cc(C(=O)Nc2c3c(nn2-c2ccc(F)cc2)CS(=O)(=O)C3)c1 | 1.06 | 0.661

# The results go on:
SMILES,CBX7 AlphaScr,CBX7 AlphaScr z-score
Cn1cc(CCCC(=O)NC2CC2)c2ccccc21,1.23,1.8
N#Cc1c(NC(=O)c2cc(-c3ccc(Cl)cc3)on2)sc2c1CCC2,1.08,0.754
Cc1ccccc1OCCn1c(-c2ccc(Cl)cc2)nc2ccccc2c1=O,1.31,2.97
Cc1cc(-c2ccc(C(C)C)cc2)n(-c2ccccn2)n1,1.01,0.424
O=c1[nH]c2ccc(S(=O)(=O)Nc3ccc4c(c3)OCO4)cc2[nH]c1=O,0.868,-5.86
CCC(CC)c1nc(Nc2cccc(C(C)=O)c2)c2ccccc2n1,0.9,-0.351
O=C1CC(c2ccccc2F)c2cc3c(cc2N1)OCO3 (stereo not drawn),0.746,-2.52
O=C(NCc1ccccc1Cl)c1nnc(Cc2ccc(Cl)cc2)o1,1,0.0129
Clc1ccc(-c2nc(NCCN3CCOCC3)c3ccccc3n2)cc1,1.01,0.12
CCN(CCNC(=O)C1CCN(Cc2nc(-c3cccc(Cl)c3)oc2C)CC1)c1ccccc1,1.06,0.525
O=C(CSc1nc2ccccc2o1)Nc1cc(C(F)(F)F)cc(C(F)(F)F)c1,0.836,-0.646
O=C(NCc1cccnc1)c1ccc2c(c1)N(Cc1ccc(Cl)cc1)C(=O)c1ccccc1S2(=O)=O,0.921,-0.861
CCOC(=O)c1c(-c2ccc(Cl)cc2)csc1NC(=O)C1COc2ccccc2O1 (stereo not drawn),0.984,-0.389
CCc1ccc(-c2nc(SCC(=O)Nc3nccs3)c(-c3ccccc3)[nH]2)cc1,1.15,2.5
COc1ccc(CCCc2nnc(SCC(=O)Nc3cc(C)ccc3C)o2)cc1,0.98,-0.233
Cc1cc(C)c2nc(N3CCC(C(=O)NC4CCC(C)CC4)CC3)sc2c1 (stereo not drawn),1.06,1.13
Cc1c(NC(=O)Cc2ccccc2)cccc1-c1nc2ncccc2o1,0.983,-0.283
COCc1cc(C)nc(SCC(=O)Nc2ccc(OC)cc2)c1C#N,1.16,1.51
CCS(=O)(=O)N1CCC(C(=O)NCc2ccccc2OC)CC1,1.05,1.65
Cc1ccc2nc(-c3ccncc3)c(Nc3ccccc3)n2c1,1.02,0.524
COc1cccc(CNC(=O)c2cnn3c(C)c(Cc4cccc(Cl)c4)c(C)nc23)c1,0.959,-1.62
CN(CCNC(=O)CCN1N=C(c2ccccc2)CCC1=O)Cc1ccccc1,1.14,2.59
CCOc1ccc(CNC(=O)CCC(=O)Nc2ccc3nc(N4CCCCC4)cc(C)c3c2)cc1,0.921,-0.751
Cc1ccccc1Nc1c(-c2ccsc2)nc2ccccn12,1.01,0.115
COc1ccc(-c2csc(N3CCN(c4cc(C)nc5ccccc45)CC3)n2)cc1,0.926,-0.723
Cc1ccc2nc(-c3ccc(NC(=O)c4ccc(Cl)cc4)cc3)sc2c1,0.987,-0.0127
CCN1CCN(CCCNC(=O)CN2C(=O)COc3ccc(S(=O)(=O)N4CCOCC4)cc32)CC1,1.04,0.793
CCn1cnc2cc(NCc3nc4ccccc4n3Cc3ccccc3)ccc21,0.884,-2.92
Cc1cc2ccccc2c(=O)n1CC(=O)NCC(=O)Nc1nc2ccccc2s1,1.04,0.442
CC(O)c1nc2ccccc2n1Cc1ccccc1F (stereo not drawn),1.16,1.45
CC1(C)NC(=O)N(CC(O)COc2ccc(N3C(=O)c4ccccc4C3=O)cc2)C1=O (stereo not drawn),1.05,0.331
CCC1c2ccc(C)n2CCN1C(=O)Nc1ccccc1OC (stereo not drawn),0.962,-1.81
COc1ccc(-c2noc(-c3ccccc3C)n2)cc1,2.28,9.11
CC(C)OCCCNC(=O)C(Cc1ccccc1)NS(=O)(=O)c1ccc2c(c1)CCC(=O)N2 (stereo not drawn),0.933,-1.26
CC1CCCN(CCCNC(=O)CCn2nc(-c3ccccc3)ccc2=O)C1 (stereo not drawn),1.03,0.767
Cc1ccc(Cn2c(=N)n(CC(O)COc3ccccc3)c3ccccc32)cc1 (stereo not drawn),0.863,-3.81
CCN(CCNC(=O)CS(=O)(=O)Cc1nc(-c2cccc(OC)c2)oc1C)c1ccccc1,1.12,0.993
O=C(C1CC(c2ccc(F)cc2)=NO1)N1CCCCCC1 (stereo not drawn),1,0.144
Cc1cccc(CC(=O)Nc2ccc3nc(N4CCCCC4)cc(C)c3c2)c1,1.08,3.33
CN(C)c1oc(-c2cccc([N+](=O)[O-])c2)nc1S(=O)(=O)c1ccccc1,0.947,-0.706
Cc1ccccc1C(=O)N1CCN(c2nc(-c3ccccc3)c3cc(Cl)ccc3n2)CC1,0.893,-0.423
CCCCN(C)C(=O)CSc1nc(NC2CCCCC2)c2ccccc2n1,0.971,-1.48
CC(C)CCN1CC(C(=O)NC2CCCCCC2)CC1=O (stereo not drawn),1.02,0.305
Cc1ccc(S(=O)(=O)NCCc2c(C)[nH]c3ccccc23)c(C)c1C,0.777,-3.42
Cc1ccc2c(c1)-c1c(cnn1CC(=O)NCCCN1C(C)CCCC1C)CO2 (stereo not drawn),0.978,-0.419
COc1ccc(OC)c(N(CC(=O)Nc2cccnc2)S(=O)(=O)c2ccccc2)c1,0.89,-1.52
O=C(Nc1ccc(Cl)c(Cl)c1)N1CCC(c2ccccc2)C1 (stereo not drawn),0.908,-0.982
COc1cc(-c2nc(-c3ccccc3)c(-c3ccc(Cl)cc3)[nH]2)cc2c1OCO2,0.598,-14
CCSc1oc(-c2ccc(F)cc2)nc1S(=O)(=O)c1ccc(C)cc1,1.03,0.0597
COc1ccc(Cl)cc1NC(=O)CC1Sc2ccccc2NC1=O (stereo not drawn),0.966,-1.1
O=C(Nc1ccc(-c2nc3ccccc3[nH]2)cc1)c1ccccc1,0.99,-0.241
Cc1cc(C)c(NC(=O)c2cc3sc(Cl)cc3n2C)c(C)c1,1.05,2.04
COc1ccc(CC(=O)NCCc2cc3ccc(C)c(C)c3[nH]c2=O)cc1OC,0.982,-0.368
O=C(CN1C(=O)COc2ccccc21)NCCN1CCN(c2ccccc2)CC1,1.01,0.232
CC(C)c1ccc(NC(=O)C(C(C)C)N2C(=O)c3ccccc3C2=O)cc1 (stereo not drawn),1.04,0.429
OC(COc1ccc2ccccc2c1Cl)Cn1ccnc1 (stereo not drawn),0.914,-3.06
CCN(CC)S(=O)(=O)c1ccc2c(c1)N(CC(=O)N1CCOCC1)C(=O)CO2,0.989,-0.326
Cc1cccc(N2CCN(C(=O)C3c4ccccc4C(=O)N4CCc5ccccc5C34)CC2)c1C (stereo not drawn),0.954,-0.753
COc1ccc(NC(=O)COc2nsnc2N2CCOCC2)cc1,1.06,0.999
COC(=O)CSc1nnc(Cc2cc(=O)[nH]c(=O)[nH]2)n1-c1cccc(OC)c1,0.9,-1.53
# New compounds follow
SMILES,CBX7 AlphaScr,CBX7 AlphaScr z-score
CCOc1ccc(NC(=O)c2cccc3c2C(=O)N(c2ccc(OC)cc2)C3)cc1,0.975,-1.01
O=S1(=O)N=C(c2cccc(Cl)c2)Nc2ccccc21,1.08,0.575
CCc1cc(-c2n[nH]c(C)c2-c2ccccc2Cl)c(O)cc1OC,0.789,-4.79
CCCCN(CC)S(=O)(=O)c1ccc(C(=O)Nc2c(C(=O)OCC)oc3ccccc23)cc1,1.1,2.35
COc1ccc(Cc2noc(-c3ccncc3)n2)cc1OC,1.14,2.25
COc1cccc(C(=O)Nc2c3c(nn2-c2ccc(C)cc2)CSC3)c1OC,0.924,-1.9
COc1ccc2[nH]cc(CCNC(=O)c3ccc(Cl)cc3)c2c1,1.19,1.88
CCN1CCN(c2cc(C)c3cc(NC(=O)c4cc(Br)ccc4Cl)ccc3n2)CC1,0.981,-0.126
COc1cc2c(=O)c(S(=O)(=O)c3ccccc3)cn(Cc3cc(C)ccc3C)c2cc1OC,0.949,-1.4
O=C(CC1CCCCC1)Nc1c2c(nn1-c1cccc(Cl)c1)CSC2,1.06,3.21
CCOC(=O)N1CCN(c2c(N3CCC(Cc4ccccc4)CC3)c(=O)c2=O)CC1,0.993,-0.276
COc1ccc(-n2nc3c(c2NC(=O)C2CC2)CSC3)cc1,0.968,-0.578
O=C(CSc1ncn[nH]1)Nc1ccnc2ccccc12,1.06,2.02
O=C(N1CCN(c2ncccn2)CC1)C1(S(=O)(=O)c2ccc(Cl)cc2)CC1,1.13,3.35
CC(C)CCNC(=O)C1CCN(C(=O)c2cc3sccc3n2Cc2ccc(Cl)cc2)CC1,1.01,0.39
C=C(C)c1cccc(C(C)(C)NC(=O)N2CCCCCC2)c1,0.884,-0.267
Cc1ccc(SCc2nc3sccn3c2Br)cc1,0.855,-1.23
Cc1ccc(-c2noc(CN(C(=O)COc3ccc(C)cc3C)C(C)C)n2)cc1,0.856,-1.43
COc1cccc(-c2nn(C)c3sc(C(=O)N4CCCCCC4)cc23)c1,0.789,-2.72
COc1ccccc1CNC(=O)Cn1cnc2sc(C)c(C)c2c1=O,1.24,3.03
Cc1ccc(CCNc2cc(C)nc3nc(C)nn23)cc1,1.04,0.899

# 4 of the compounds above, as tab-separated lines:
mol	CBX7 AlphaScr	CBX7 AlphaScr z-score
O=C(CSc1nc2ccccc2o1)Nc1cc(C(F)(F)F)cc(C(F)(F)F)c1	0.836	-0.646
O=C(N1CCN(c2ncccn2)CC1)C1(S(=O)(=O)c2ccc(Cl)cc2)CC1	1.13	3.35
CCN(CC)S(=O)(=O)c1ccc2c(c1)N(CC(=O)N1CCOCC1)C(=O)CO2	0.989	-0.326
O=C(CN1C(=O)COc2ccccc21)NCCN1CCN(c2ccccc2)CC1	1.01	0.232
